From PubChem BioAssay
PD-1 reversal = activators reversing PD-1 mediated T-cell inhibition, primary screen, luminescence, primary human CD4 T cells, PD-L1 beads; CellTiter-Glo 96 h; activation, % (no concentration beside the values); 29,000 tested, under 10 active;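 active = replicate mean of 50% or more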;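 also: 0% = median vehicle wells and 100% = positive control; 100 nL library stock added to about 50 µL; numbers are from one replicate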
MITF inh = inhibitors of MITF, primary screen, MITF inhibitor project, cell-based, luminescence | inhibition, % (no concentration beside the values) | TRPM1 promoter luciferase, 24 h | actives 0.28% (n = 37,000);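 active = most replicates at 85% or more, or half of them and the mean; inconclusive = half reach 85% but not the mean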;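 also: human melanocyte line stably carrying TRPM1 promoter luciferase reporter; 0% = vehicle wells and 100% = a positive control; the first replicate is given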
Shh pathway inh = Hedgehog pathway signaling inhibitors, primary screen, luminescence, Shh-LIGHT2 cells, Gli-luciferase; Shh-LIGHT2 Gli-luciferase reporter, 30 h; actives 2.1% (n = 22,000); inhibition, % (test concentration not listed); AID 2313, 2010;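 active = replicate mean of 65% or more; inconclusive = mean lower but half the replicates past it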;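 also: pathway switched on by Shh-conditioned medium diluted 1 in 25 in low serum; 100 nL library stock added to about 40 µL; 0% = median of neutral wells and 100% = positive control level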
YB-1 expression = inhibitors of YB-1 gene expression, primary screen, cell-based, fluorescence; delta delta Cp (YB-1 minus CDIP) (concentration not given with the values); actives 0.37% (n = 30,000); U2OS, qRT-PCR YB-1 vs CDIP delta delta Cp, 16 h; active compounds read high; zero = DMSO, each unit about twofold;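 active = delta delta Cp rounded down to an integer at or above 3, about 3 SD of DMSO wells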;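 also: higher means less YB-1 transcript or more CDIP transcript relative to DMSO; stock transfer was 100 nL into about 100 µL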
Starred values were filed as active, the others as inactive; ? = inconclusive; . = no result given. An excerpt; count on the stated rates, not on these rows.

Compound,PD-1 reversal,MITF inh,Shh pathway inh,YB-1 expression
CC(C)NC(=O)N(C)C[C@@H]1Oc2ccc(NC(=O)Cc3ccccc3)cc2CC(=O)N([C@H](C)CO)C[C@@H]1C,1.3,-12,-12,0.15
CNC[C@@H]1Oc2ccc(NS(C)(=O)=O)cc2C(=O)N([C@@H](C)CO)C[C@@H]1C,2.4,-2,-29,0.23
C[C@@H]1CN([C@H](C)CO)C(=O)Cc2cc(NC(=O)Nc3ccc(F)cc3)ccc2O[C@@H]1CN(C)Cc1ccc(C(F)(F)F)cc1,-4.3,8,28,-0.29
Cc1cccc(C)c1NC(=O)CN(c1cccc(F)c1)S(C)(=O)=O,1.7,4,.,.
Cc1noc(C)c1NC(=O)N(C)C[C@H]1Oc2ccc(NC(=O)c3ccncc3)cc2CC(=O)N([C@@H](C)CO)C[C@H]1C,1.6,-7,-15,-0.3
C[C@@H]1CN([C@H](C)CO)C(=O)c2cccc(NC(=O)C3CCCCC3)c2O[C@@H]1CN(C)Cc1ccc2c(c1)OCO2,0.3,-15,-28,0.85
C[C@H](CO)N1C[C@H](C)[C@H](CN(C)Cc2ccc(-c3ccccc3)cc2)Oc2ccc(NS(=O)(=O)c3ccc(F)cc3)cc2C1=O,.,-7,.,-0.015
CN(CC(=O)Nc1ncn[nH]1)S(=O)(=O)c1ccc2ccccc2c1,2.4,1,.,.
C[C@@H]1CCCCO[C@@H](CN(C)S(=O)(=O)c2cccs2)[C@@H](C)CN([C@H](C)CO)C(=O)c2cc(NC(=O)c3ccncc3)ccc2O1,.,4,-8,0.12
CN(C1CCCCC1)S(=O)(=O)c1ccc(N)cc1,-0.7,-5,-20,-0.65
C[C@H]1CN([C@@H](C)CO)C(=O)c2cc(NC(=O)CCN3CCOCC3)ccc2O[C@H]1CN(C)C(=O)Nc1cccc2ccccc12,-0.8,-2,-61,-0.4
COc1cc(NS(=O)(=O)c2ccc(NC(=S)NC(=O)c3ccco3)cc2)ncn1,1.7,-18,-13,-0.29
COC(=O)c1c(C)n(CCNc2ccc([N+](=O)[O-])cc2)c2ccc(O)cc12,-2.9,-6,.,.
C[C@H](CO)N1C[C@H](C)[C@H](CN(C)Cc2ccc(Cl)c(Cl)c2)Oc2ccc(NC(=O)c3ccncc3)cc2CC1=O,.,3,.,-0.26
C[C@@H]1CN([C@H](C)CO)C(=O)c2cc(NC(=O)Cc3ccccc3)ccc2O[C@@H]1CN(C)S(=O)(=O)c1cn(C)cn1,-0.7,-5,23,0.039
COc1ccc(S(=O)(=O)N(C)C[C@H]2Oc3ccc(NS(=O)(=O)c4ccccc4)cc3CC(=O)N([C@@H](C)CO)C[C@H]2C)cc1,-2.2,-34,-19,-0.21
CC(C)NC(=O)N(C)C[C@@H]1Oc2ccc(NC(=O)c3ccncc3)cc2C(=O)N([C@@H](C)CO)C[C@@H]1C,-1.0,-13,-25,-0.1
CC(=O)Nc1cccc(-c2nnc(SCC(=O)Nc3cccc(Cl)c3)n2C)c1,0.7,-5,.,.
Cc1ccc(OCC(=O)Nc2ccc3c(c2)oc2ccccc23)cc1[N+](=O)[O-],0.0,-26,.,.
c1ccc(-c2ccc3c4ccccc4cc-3o2)cc1,-0.4,18,-3,0.47

Compound,PD-1 reversal,MITF inh,Shh pathway inh,YB-1 expression
C[C@@H]1CN([C@@H](C)CO)C(=O)c2cc(NC(=O)Nc3ccc(F)cc3)ccc2O[C@H]1CN(C)Cc1ccc(Oc2ccccc2)cc1,-1.7,5,.,0.17
COc1ccc(S(=O)(=O)N(C)CC(=O)Nc2ccccc2C(F)(F)F)cc1,-0.7,7,.,.
C[C@H]1CN([C@@H](C)CO)C(=O)c2cc(NC(=O)Cn3cnnn3)ccc2O[C@H]1CN(C)Cc1ccc(-c2ccccc2)cc1,0.4,0,-20,0.00081
Cc1ccc(OCC(=O)Nc2cc3nn(-c4ccc(C)cc4)nc3cc2C)cc1,-0.5,-5,.,.
Cc1ccc(S(=O)(=O)N(C)C[C@H]2Oc3ccc(NS(C)(=O)=O)cc3C(=O)N([C@@H](C)CO)C[C@@H]2C)cc1,2.7,-15,.,-0.18
C[C@@H]1CN([C@H](C)CO)C(=O)c2cc(NC(=O)C3CCCCC3)ccc2O[C@@H]1CN(C)C(=O)Nc1ccc(C(F)(F)F)cc1,.,-2,-28,0.14
Cc1noc(C)c1NC(=O)N(C)C[C@H]1Oc2ccc(NC(=O)Nc3cccc4ccccc34)cc2C(=O)N([C@H](C)CO)C[C@@H]1C,.,5,.,-0.54
Cc1noc(C)c1S(=O)(=O)N(C)C[C@H]1Oc2ccc(NC(=O)C3CCCCC3)cc2CC(=O)N([C@@H](C)CO)C[C@H]1C,-1.0,-9,-26,-0.4
O=C(C1CCCO1)N1N=C(c2c(-c3ccccc3)c3cc(Cl)ccc3[nH]c2=O)CC1c1ccco1 (stereo not drawn),-4.5,8,.,.
COc1ccc(NC(=O)Nc2cccc3c2O[C@H](CN(C)S(=O)(=O)c2ccc(OC)cc2)[C@H](C)CN([C@H](C)CO)C3=O)cc1,-1.7,-3,8,-0.062
Cn1c(SCC(=O)Nc2ccc(F)c(F)c2)nnc1-c1ccccn1,2.5,13,.,.
C[C@@H]1CN([C@H](C)CO)C(=O)c2cc(NC(=O)Nc3ccc(C(F)(F)F)cc3)ccc2O[C@@H]1CN(C)Cc1ccc(C(F)(F)F)cc1,-5.7,36,.,-0.0083
Cc1ccc(S(=O)(=O)N(C)Cc2nc(-c3ccncc3)no2)cc1,-1.2,39,.,.
C[C@H](CO)N1C[C@H](C)[C@@H](CN(C)C(=O)Nc2cccc3ccccc23)Oc2ccc(NC(=O)C3CCCCC3)cc2C1=O,-2.3,-1,-5,0.11
CCNS(=O)(=O)c1cc(-c2nnc(OC)c3ccccc23)ccc1C,0.8,1,34,-0.13
COc1ccc(C)cc1S(=O)(=O)N(C)CC(=O)N1CCCC1,-0.1,0,.,.
C[C@H]1CN([C@@H](C)CO)C(=O)c2cc(NC(=O)Nc3ccc4c(c3)OCO4)ccc2O[C@@H]1CN(C)Cc1ccc(Cl)c(Cl)c1,-6.3,-7,.,-0.45
O=c1ccnc(SCc2ccc(Cl)cc2)[nH]1,0.5,4,-26,-0.29
C[C@H](CO)N1C[C@H](C)[C@H](CN(C)C(=O)Nc2ccc(F)cc2)Oc2ccc(NC(=O)C3CCCCC3)cc2CC1=O,0.0,-6,?,0.043
CC(NS(=O)(=O)c1cccc(Cl)c1)C(=O)Nc1ccc(Br)cc1F (stereo not drawn),-3.1,0,.,.

The line under a structure holds: PD-1 reversal, MITF inh, Shh pathway inh, YB-1 expression
C[C@H](CO)N1C[C@H](C)[C@H](CN(C)Cc2ccc(C(=O)O)cc2)Oc2c(NC(=O)Nc3cccc4ccccc34)cccc2C1=O
→ 1.0, 0, -17, 0.058
COc1ccc(NC(=O)N(C)C[C@@H]2Oc3ccc(N(C)C)cc3C(=O)N([C@H](C)CO)C[C@@H]2C)cc1
→ 1.6, -8, 16, 0.056
C[C@@H]1CCCCO[C@H](CN(C)S(=O)(=O)c2ccccc2)[C@@H](C)CN([C@H](C)CO)C(=O)c2cc(NC(=O)c3ccccc3)ccc2O1
→ -1.6, 3, 4, 0.13
CC/C=C\C=C1\C(=O)C=CC1CCCCCCCC(=O)O (stereo not drawn)
→ ., ., 49, 0.029
C[C@H](CO)N1C[C@H](C)[C@H](CN(C)S(=O)(=O)c2cn(C)cn2)Oc2ccc(NC(=O)Nc3ccccc3)cc2C1=O
→ 1.7, 7, ., 0.075
COc1ccc(NC(=O)Nc2ccc3c(c2)C(=O)N([C@H](C)CO)C[C@H](C)[C@@H](CN(C)Cc2ccc(C(F)(F)F)cc2)O3)cc1
→ -2.2, 27, 10, -0.4
COc1ccc(NC(=O)N(C)C[C@@H]2Oc3c(NS(=O)(=O)c4ccc(F)cc4)cccc3C(=O)N([C@H](C)CO)C[C@H]2C)cc1
→ 3.0, -8, 8, 0.033
C[C@H](CO)N1C[C@H](C)[C@H](CN(C)Cc2ccc3c(c2)OCO3)Oc2ccc(NC(=O)c3ccncc3)cc2C1=O
→ -1.7, 9, -30, 0.18
C(=Nc1cccc2ccccc12)c1c[nH]c2ccccc12
→ 0.8, 30, 14, 0.0088
COc1ccccc1NC(=O)CSc1nnc(-c2ccc(F)cc2)n1C
→ 0.6, -7, ., .

The line under a structure holds: PD-1 reversal, MITF inh, Shh pathway inh, YB-1 expression
CC(C)NC(=O)Nc1ccc2c(c1)CC(=O)N([C@@H](C)CO)C[C@H](C)[C@@H](CN(C)S(=O)(=O)c1ccccc1)O2
→ -1.3, -1, 1, 0.12
CCc1ccccc1NC(=O)CSc1nnc(N)s1
→ -0.3, -7, ., .
CCOC(=O)COc1cccc(-c2nc3ccccc3s2)c1
→ -2.2, ?, ., .
C[C@@H]1CN([C@@H](C)CO)C(=O)c2cccc(NC(=O)C3CCOCC3)c2O[C@H]1CN(C)S(C)(=O)=O
→ ., -2, -27, -0.36
C[C@H]1CN([C@@H](C)CO)C(=O)c2cccc(NS(=O)(=O)c3ccccc3)c2O[C@@H]1CN(C)S(=O)(=O)c1cccs1
→ -1.0, -5, 2, 0.32
COc1ccc(S(=O)(=O)Nc2ccc3c(c2)C(=O)N([C@H](C)CO)C[C@H](C)[C@@H](CN(C)CC2CC2)O3)cc1
→ 1.7, -5, -19, 0.14
Cc1[nH]c2ccccc2c1C(=O)CSc1n[nH]c(N)n1
→ 0.6, -19, ., .
COc1ccc(/C=N/C2=NNC(=O)C(CC(=O)O)S2)cc1 (stereo not drawn)
→ 0.4, 13, 21, -0.71
COc1ccc(S(=O)(=O)N(C)C[C@H]2Oc3c(NC(=O)Nc4ccc(F)cc4)cccc3C(=O)N([C@H](C)CO)C[C@@H]2C)cc1
→ ., -7, 17, -0.22
COC(=O)CCS(=O)(=O)c1cccc2c(S(=O)(=O)CCC(=O)OC)cccc12
→ 0.2, -1, -7, -5.5

The line under a structure holds: PD-1 reversal, MITF inh, Shh pathway inh, YB-1 expression
COc1ccc(S(=O)(=O)N(C)C[C@H]2Oc3c(NC(=O)Nc4ccccc4)cccc3C(=O)N([C@H](C)CO)C[C@@H]2C)cc1
→ 0.4, -9, -28, -0.31
C[C@@H]1CN([C@@H](C)CO)C(=O)Cc2cc(NC(=O)CCC(F)(F)F)ccc2O[C@@H]1CN(C)C(=O)Nc1ccccc1
→ -0.1, 1, -17, 0.55
C[C@H]1CN([C@@H](C)CO)C(=O)c2cccc(NC(=O)c3cnccn3)c2O[C@H]1CN(C)S(=O)(=O)c1ccc(F)cc1
→ -0.1, -9, 6, 0.47
NC(=O)CSc1nnnn1-c1cccc(O)c1
→ 0.3, 7, ., .
C[C@@H]1CN([C@H](C)CO)C(=O)c2cccc(NS(=O)(=O)c3cn(C)cn3)c2O[C@H]1CN(C)Cc1ccc(Cl)c(Cl)c1
→ 0.8, -30, -5, -0.041
Cc1ccc(-c2noc(CN(C(C)C)S(=O)(=O)c3ccccc3)n2)cc1
→ 0.1, 27, ., .
CC1(C)Cc2nc3sc4c(SCC(=O)N5CCOCC5)ncnc4c3cc2CO1
→ 0.7, -29, ., .
C[C@H]1CN([C@@H](C)CO)C(=O)Cc2cc(NS(=O)(=O)c3cn(C)cn3)ccc2O[C@@H]1CN(C)Cc1ccc(C(F)(F)F)cc1
→ 1.3, -10, -29, 0.17
CNC[C@@H]1Oc2ccc(NC(=O)NC(C)C)cc2CC(=O)N([C@@H](C)CO)C[C@@H]1C
→ ., -8, ?, 0.12
O=C(NC(C(=O)c1ccccc1)n1cnccc1=O)c1ccccc1 (stereo not drawn)
→ 0.6, -18, -24, 0.13

The line under a structure holds: PD-1 reversal, MITF inh, Shh pathway inh, YB-1 expression
C[C@@H]1CN([C@@H](C)CO)C(=O)c2cc(NC(=O)Nc3ccccc3)ccc2O[C@@H]1CN(C)S(=O)(=O)c1ccc(F)cc1
→ 0.8, 2, -24, -0.044
COc1ccc(OCC(=O)Nc2ccccc2-c2nc3ccccc3s2)cc1
→ -0.6, 21, ., .
C[C@H](CO)N1C[C@H](C)[C@H](CN(C)C(=O)NC2CCCCC2)Oc2ccc(NC(=O)Cn3cnnn3)cc2C1=O
→ 0.0, -9, -12, 0.36
CC(C)NC(=O)N(C)C[C@H]1Oc2ccc(NS(=O)(=O)c3ccccc3)cc2CC(=O)N([C@@H](C)CO)C[C@H]1C
→ 1.9, -6, -11, -0.33
